# Assay outcomes (PubChem)
# Sfp inh: qHTS Assay for Inhibitors of Bacillus subtilis Sfp phosphopantetheinyl transferase (PPTase); 4'-phosphopantetheinyl transferase ffp (Bacillus subtilis), Q9F4F7; Biochemical Sfp PPTase activity, qHTS; Potency, µM, without a hit: max response, negative = inhibition, usual class: inhibitors; actives 3.5% (n = 310,000); AID 1490, 2009; active = well fitted inhibition curve with a large enough effect; inconclusive = small, poorly fitted or top-dose-only effect, or another doubt; inactive = no such curve, though single readings can be large or run the other way;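 note: the enzyme is Sfp with the accession as filed and its product quenches rhodamine fluorescence; potency is the fitted concentration of half-maximal effect; 0% = enzyme reaction without inhibitor and -100% = no enzyme wells; top concentration of the series not given in the record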
#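 Sfp 15 nM + cpd, 15 min RT; start w/ rhodamine-CoA 5 uM, BHQ-2-YbbR 12.5 uM (final); 50 mM Hepes pH 7.6, 10 mM MgCl2, 0.01% NP-40, 0.01% BSA; read 525/598 nm at 0 and 30 min.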
# D2 agonist: Beta-Arrestin HTS for Positive Allosteric Modulators of the Human D2 Dopamine Receptor: Agonists; D(2) dopamine receptor (Homo sapiens), P14416; DiscoveRx PathHunter D2 beta-arrestin, luminescence, 90 min; 100% = 57 uM dopamine signal; activation, % (no concentration beside the values); actives 0.084% (n = 360,000); AID 624465, 2012; in the data active = activation above about 40%; inconclusive = about 15% to 40%; inactive = below about 15%; note: compound concentration not given in the record; the text of the record calls up to 30% inactive
# Target sequence (P14416 whole entry, looked up): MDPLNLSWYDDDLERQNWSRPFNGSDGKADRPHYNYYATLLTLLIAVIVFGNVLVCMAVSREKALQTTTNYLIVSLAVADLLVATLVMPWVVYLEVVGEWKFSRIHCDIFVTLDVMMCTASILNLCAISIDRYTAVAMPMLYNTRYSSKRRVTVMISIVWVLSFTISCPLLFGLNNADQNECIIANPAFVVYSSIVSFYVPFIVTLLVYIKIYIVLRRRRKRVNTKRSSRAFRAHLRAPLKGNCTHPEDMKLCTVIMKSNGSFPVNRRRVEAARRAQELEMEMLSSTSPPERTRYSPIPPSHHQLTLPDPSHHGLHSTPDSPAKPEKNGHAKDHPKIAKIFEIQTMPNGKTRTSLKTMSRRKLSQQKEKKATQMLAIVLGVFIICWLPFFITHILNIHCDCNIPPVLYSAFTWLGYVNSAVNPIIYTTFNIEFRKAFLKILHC
#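 Agonist mode: compounds alone added to overnight-plated D2 PathHunter cells for 90 min at 37 C, with 57 uM final dopamine (EC100) defining full response. Beta-arrestin recruitment detected by chemiluminescent reagent, read after 1 h at ambient temperature.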
# Menin-MLL FL inh: qHTS Assay for Inhibitors Targeting the Menin-MLL Interaction in MLL Related Leukemias: Competition With Fluorescein Labeled MLL-derived Peptide; Fluorescence polarization, fluorescein-MLL peptide displacement from menin; FP activity change, % at 61.4 µM; 290,000 tested, under 10 active; inconclusive = falling polarisation curve, or a change in total fluorescence; inactive = total fluorescence flat and polarisation flat or rising; no compound was filed as active; the % refers to the polarisation; negative = inhibition;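 note: % of control where 0% means no effect; inhibitors lower the polarisation; unlabelled MLL peptide was the positive control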
# gsp antagonist: qHTS for Antagonists of gsp, the Etiologic Mutation Responsible for Fibrous Dysplasia/McCune-Albright Syndrome: qHTS. gsp-mutant cells, cAMP HTRF, 30 min; control for the full effect not named in the record. Potency, µM (doses to about 76.9 µM), for inactives: at the top dose activity change, negative = inhibition, hits mostly inhibitors. actives 0.4% (n = 340,000); active = falling curve of any shape with a large fitted effect; inconclusive = falling curve, mostly with a smaller effect; inactive = flat or rising curve; cell line not stated here;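 note: intracellular cAMP measured with PDE inhibitor Ro 20-1724 present during compound exposure; potency is the fitted concentration of half-maximal effect; % is set by controls: 0 for no effect and ±100 for the full control effect; nearly all actives have a fitted effect of over 65% in size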
#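 HTRF cAMP measurement after 30 min RT detection following 30 min, 37C compound treatment alongside […] (added as 300 uM solution) in G418-selected cells seeded at 2000/well and grown 16–24 h.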
# gsp ag: qHTS for Agonist of gsp, the Etiologic Mutation Responsible for Fibrous Dysplasia/McCune-Albright Syndrome: qHTS; gsp mutant cells, cAMP HTRF, 30 min; control for the full effect not named in the record; Potency, µM (doses to about 76.9 µM), for inactives: at the highest dose activation (cAMP increase), actives largely listed as activators; AID 624287, 2012; actives 0.13% (n = 340,000); active = well fitted activation curve with a large enough effect; inconclusive = small, poorly fitted or top-dose-only effect, or another doubt; inactive = no such curve, though single readings can be large or run the other way; cell line not stated here;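 note: phosphodiesterase inhibitor Ro 20-1724 added with compounds to block cAMP breakdown; potency is the fitted concentration of half-maximal effect; nearly all actives have a fitted effect of over 60% in size; about a fifth of the inactives were tested at one dose only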
#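 Cells stably selected in G418 were plated at 2000/well, grown 16-24 hr, then given compounds in DMSO with the PDE inhibitor […] (300 uM solution added) for 30 min at 37C; cAMP was read by HTRF.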
# ClpP mod: qHTS Assay for Activators of ClpP. actives 1.9% (n = 340,000). purified B. subtilis ClpP, FRET peptide cleavage, 20 min. Potency, µM (series often up to 57.5 µM), for inactives: at the highest dose activity change, negative = active; active = well fitted falling curve with a large enough effect; inconclusive = small, poorly fitted or top-dose-only effect; inactive = no such curve, though single readings can be large or run the other way; note: potency is the fitted concentration of half-maximal effect; the source files actives as falling curves though it sought activators and does not explain the sign; nearly all actives have a fitted effect of over 65% in size; many hits overshoot -100%
# Target sequence (P80244 whole entry, looked up): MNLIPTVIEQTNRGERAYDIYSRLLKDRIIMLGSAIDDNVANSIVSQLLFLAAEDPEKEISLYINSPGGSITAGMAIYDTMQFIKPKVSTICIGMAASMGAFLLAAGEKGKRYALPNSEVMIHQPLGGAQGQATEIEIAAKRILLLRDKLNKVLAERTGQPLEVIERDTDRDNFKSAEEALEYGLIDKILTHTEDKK
#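 FRET quenching reversal measured ClpP activation: 10 microg/mL B. subtilis ClpP at pH 8 with the FRET-FV decapeptide, read at 430 nm after 320 nm excitation. The 20-min minus 0-min signal was scaled between DMSO/no-enzyme wells and ADEP (5.8 microM final).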
# PINK1 expr mod: A Quantitative High throughput Screen to Identify Chemical Modulators of PINK1 Expression; actives 0.2% (n = 410,000); Potency, µM (top dose mostly 76.6 µM), for inactives: at the top dose activation (PINK1 increase), hits mostly activators; PINK1 immunofluorescence, high-content cytometry, 24 h; active = well fitted activation curve with a large enough effect; inconclusive = small, poorly fitted or top-dose-only effect; inactive = flat fitted curve, though single readings scatter; cell line not stated here;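 note: potency is the fitted concentration of half-maximal effect; % of control where 0% means no effect; nearly all actives have a fitted effect of over 65% in size; a mitochondrial uncoupler was the plate control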
#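 PINK1 protein, normally rapidly degraded, was detected by immunofluorescence after 24 hour compound treatment of a stable cell line. Titration data (5 concentrations) came from laser-scanning cytometry, with CCCP-treated wells as controls.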
# Active calls of the source: *; ? = inconclusive; . = not tested or not shown; & = joins results of further samples; [ ] = dose if it differs, or a comment. Outcome played no part in choosing rows; about 5.1% have a hit in one of these screens.
SMILES,Sfp inh,D2 agonist,Menin-MLL FL inh,gsp antagonist,gsp ag,ClpP mod,PINK1 expr mod
NC(=O)C1CCN(C(=O)c2ccc3nc(-c4ccccc4)c(-c4ccccc4)nc3c2)CC1,0%,1.6,.,-19%,-50%[inhibitor],2.9%,-1.5%
COc1ccc(NC(C)C(=O)N/N=C/c2c(O)ccc3ccccc23)cc1 (stereo unspecified),17%,9.4,5.1,-11%,-23%,.,9.1%
c1cncc(CN=C2Nc3ccccc3CS2)c1,12%,-3.2,-2.3,-2%,1%[15.4 µM],.,0.7%
COc1ccc(CCNC(=O)Cc2ccc3c(c2)OCO3)cc1OC,18%,-0.3,0.6,-4%,-3%[15.4 µM],-2.4%,-1.1%
CC(NC(=O)c1ccncc1)c1ccc(Br)cc1 (stereo unspecified),.,-4.3,.,1%,18%,.,-1.1%
COc1cccc(NC(=O)C2CCN(S(=O)(=O)c3ccc4[nH]c(=O)ccc4c3)CC2)c1,9%,-6.1,-0.7,9%,8%,-14%,4.2%
COc1ccc(OCC(O)CNc2ccc(Br)cc2)cc1 (stereo unspecified),?,-1.3,0.1,-13%,17%,-2.0%,.
COc1cccc(NS(=O)(=O)c2ccc3[nH]cc(C(=O)NCCCOC(C)C)c(=O)c3c2)c1,?,-2.0&3.5,?,11%,-14%,-7.4%,1.5%
COc1ccc(COC(=O)c2ccc(N3CCCC3=O)cc2)cc1F,-25%,-0.8,1.8,-25%,1%,-1.2%,0.8%
CSCCC(NS(=O)(=O)c1ccc(Cl)cc1)C(=O)OCC(=O)NC12CC3CC(CC(C3)C1)C2 (stereo unspecified),24%,-0.7,6.9,-18%,-6%,-1.2%,2.4%
O=C(CNc1ccc2ccccc2c1)N/N=C/C=C/c1cccc([N+](=O)[O-])c1,-12%,5.1,3.4,-5%,-6%,4.0%,-1.5%
CSCc1cc(N2CCOCC2)nc(-c2ccccc2)n1,8%,-4.2,-5.1,-4%,9%[15.4 µM],.,1.9%
O=C(CCC1CCCC1)Nc1cc(Cl)ccc1N1CCOCC1,.,-3.5,.,11%,0%,0.1%,1.3%
N=C1/C(=C\c2ccc(OC(=O)c3ccco3)cc2)C(=O)N=C2SC(N3CCCCC3)=NN12,4%,-4.3,16,-11%,-88%[inhibitor],-3.1%,-0.5%
c1ccc(-c2nnc(-c3ccco3)n2-c2ccccc2)cc1,-4%,-3.4,1.4,9%,6%,22µM*,-1.5%
COc1ccc(CCN(C(=O)c2ccc(F)cc2)C2=CC3CCC(C2)N3C)cc1OC (stereo unspecified),6%,-2.1,-3.6,-14%,-27%,0.6%,1.0%
Cc1ccc(NC(=O)C2CC2C)c(Cl)c1 (stereo unspecified),18%,-4.4,-3.8,14%,7%,-0.9%,4.5%
CCCOc1ccc(C(=O)Nc2ccc(S(=O)(=O)NC3=NCCCCC3)cc2)cc1,.,1.6,.,1%,-8%,-1.1%,-1.8%
CC(Sc1nncn1C)C(=O)Nc1ccc(N2CCCCC2)cc1 (stereo unspecified),.,9.0,.,1%,-18%,-0.1%,0.4%
O=C(CNC(=O)c1ccc(Cl)cc1)NCCCn1ccnc1,7%,-2.7,-1.8,9%,10%,0.9%,2.5%
COC(=O)/C(=C\c1cccnc1)NC(=O)c1ccc(OCc2ccccc2)cc1,2%,1.3,.,3%,-51%[inhibitor],-1.1%,1.2%
CCOC(=O)C1CCCN(C(=O)c2ccc(S(=O)(=O)N3CCOCC3)cc2)C1 (stereo unspecified),.,-1.8,.,-7%,-16%,0.0%,-0.2%
CCOc1ccc(-n2c(=S)sc3c(=O)[nH]c(SCC(=O)NC(C)CC)nc32)cc1 (stereo unspecified),-25%,-1.2,0.7,-21%,27%,1.5%,-0.4%[38.3 µM]
Cc1nn(Cc2ccccc2)c(Cl)c1C(=O)NCc1ccc(C)n1C,17%,-2.6,4.0,-7%,-39%[inhibitor],-13%,-1.9%
O=C1N=C2SCCN2/C1=C\c1ccc(Cl)cc1,10%,-6.7,1.5,15%,0%,-1.7%,-0.9%
# (cont.)
SMILES,Sfp inh,D2 agonist,Menin-MLL FL inh,gsp antagonist,gsp ag,ClpP mod,PINK1 expr mod
CCOc1ccc(CN2CCNC(=O)C2CC(=O)NCCCn2ccnc2)cc1 (stereo unspecified),4%,-1.0,-7.5,24%,23%,-4.1%,-0.4%
Cn1c(C(=O)O)cc2c(=O)n3ccccc3nc21,3%,-0.2,-9.6,5%,?,3.9%,1.5%
NNC(=O)c1nn(-c2ccc(Cl)cc2)ccc1=O,-12%,-0.9,2.2,2%,?,-4.2%,-3.0%
Cc1cc(C)c(OCCCCCn2ccnc2)c(C)c1,19%,4.6,-0.7,-7%,-25%,-1.6%,2.3%
O=C1NC2(CCCCC2)C(=O)N1CC(=O)N(Cc1ccccc1)c1ccccc1,16%,-3.8,.,3%,-1%[15.4 µM],.,0.2%
COc1ccc(CNC(=O)CN2CCN(S(=O)(=O)c3cc(Br)ccc3Br)CC2)cc1OC,.,0.3,.,-16%,-2%,-1.3%,8.6%
COc1ccc(OC)c2[nH]c(=O)c(CCNC(=O)c3ccc(Br)o3)cc12,-3%,0.2,2.4,-9%,-2%,-1.2%,.
O=C(c1ccc(SCc2ccco2)c([N+](=O)[O-])c1)N1CCOCC1,2%,-1.4,0.3,4%,-8%[15.4 µM],1.0%,2.3%
CCN(CC)C(=O)Cn1cc(C(=O)C(=O)NCc2ccco2)c2ccccc21,-14%,-6.8,-0.4,-4%,8%[15.4 µM],.,0.6%
CCOC(=O)CNC(=O)CSc1nc2cccnc2n1C,14%,-1.6,5.3,-3%,13%,-5.4%,-0.4%
Cc1cc(C)c(C)c(S(=O)(=O)N2CCN(C(=O)C3CSC4(C)CCC(=O)N34)CC2)c1C (stereo unspecified),.,-4.5,.,-2%,-1%,-0.9%,1.5%
CCc1ccc(-c2nn[nH]n2)cc1,7%,-2.1,1.8,-30%,13%,0.4%,5.5%[38.3 µM]
CCN(CC(=O)NC(C)(C)C)C(=O)c1ccc(Br)cc1,11%,-7.9,-1.3,-23%,7%[15.4 µM],.,-0.7%
Cc1c(NC(=O)c2ccc(NS(=O)(=O)c3ccccc3)cc2)c(=O)n(-c2ccccc2)n1C,2%,-0.7,-2.0,-1%,-23%,-2.8%,?
CNC[C@H]1Oc2c(NS(=O)(=O)c3ccc(OC)cc3)cccc2C(=O)N([C@H](C)CO)C[C@H]1C,.,-6.7,.,11%,.,-1.0%,0.6%
COc1cc(OC)cc(-c2c(C#Cc3ccsc3)c3cc(-c4ccc5[nH]ccc5c4)ccc3n2C)c1,.,-3.3,.,6%,5%,10%,1.5%
CCCNC(=S)N1CCN(c2nc(-c3cccc(OC)c3)cs2)CC1,6%,3.0,0.9,-25%,26%[15.4 µM],2.2%,0.6%
CC(O)(C#CCN1CCCCC1)c1ccccc1 (stereo unspecified),16%,0.9,2.0,8%,-5%,-2.6%,2.0%[38.3 µM]
CC(SCc1ccccc1)C(=O)Nc1ccccc1Br (stereo unspecified),8%,1.8,0.2,?,-69%[inhibitor],.,3.0%
COC(=O)[C@@]12CCCCN1[C@H](c1ccc(-c3ccc(Cl)c(Cl)c3)cc1)[C@H]1C(=O)N(C)C(=O)[C@H]12,.,1.2,.,2%,.,-3.9%,3.6%
CCOc1c2ccc(C(=O)NCc3ccc4c(c3)OCO4)cc2nn1CC,13%,-4.8,1.0,1%,?,4.0%,1.1%
COC(C(=O)NCc1ccc(C)cc1)c1ccccc1 (stereo unspecified),0%,4.9,1.7,7%,1%,-1.3%,0.0%
CC(=O)NC(=S)Nc1ccc(N2CCOCC2)c(S(=O)(=O)Nc2cc(Cl)ccc2Cl)c1,17%,0.0,3.6,27%,18%,.,-0.5%
Cc1cccc(N2CCN(C(=O)c3ccc4nc[nH]c4c3)CC2)c1C,9%,-5.9,-2.1,2%,3%[15.4 µM],0.1%,-1.7%
COC(=O)c1cc(C)sc1NC(=O)CC1Nc2ccccc2NC1=O (stereo unspecified),79µM*,-3.1,4.3,2%,9%[15.4 µM],.,?
# Additional entries
SMILES,Sfp inh,D2 agonist,Menin-MLL FL inh,gsp antagonist,gsp ag,ClpP mod,PINK1 expr mod
Cn1c(SCC(=O)N2CCOCC2)nnc1-c1ccc(NC(=O)c2ccccc2F)cc1,18%,-0.6,-1.4,-12%,-62%[inhibitor],1.7%,.
Cc1ccc(SCCNC(=O)/C=C/c2ccccc2Cl)cc1,19%,-0.7,3.5,?,3%,-4.9%,?
CCn1cc(S(=O)(=O)Nc2ccc(Cl)cc2F)cn1,23%,1.9,.,6%,-4%,0.1%,1.2%
COc1cccc(/C=N/NC(=S)Nc2cccc(S(=O)(=O)N(C)C)c2)c1,10µM*,-1.0,0.9,-29%,19%,-1.4%,0.0%
Cc1cc(S(=O)(=O)N(C)CCc2ccccc2)ccc1-n1cnnn1,3%,-6.6,-0.4,4%,1%,1.7%,-0.5%
O=C(COc1ccc([N+](=O)[O-])cc1)NCc1cccnc1,-4%,0.1,6.0,4%,1%,4.5%,-2.9%
CC1CCCCC1NC(=O)c1cccc(N2C(=O)C3C4C=CC(C4)C3C2=O)c1 (stereo unspecified),11%,-8.0,-1.4,2%,-169%[inhibitor],-1.2%,-0.2%
COc1ccc(C(=O)NNC(=O)C2CC=CCC2)cc1 (stereo unspecified),27%,2.1,4.9,0%,3%[15.4 µM],?,1.6%
